hNpr1 antagonist – blocks ANP-stimulated signaling of human Npr1 receptor; HEK293 hNpr1 GloSensor cGMP, ANP-stimulated luminescence; P16066; 76,000 compounds, 1.6% hits; Potency, µM (doses to about 46.3 µM), for the others: at the top dose activity change, negative = inhibition, usual class: inhibitors; active = well fitted inhibition curve with a large enough effect; inconclusive = small, poorly fitted or top-dose-only effect; inactive = no such curve, though single readings can be large or run the other way;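 further: nearly all actives have a fitted effect of over 60% in size; nearly all hits also lower the signal before the agonist is added; a reference antagonist and vehicle were the controls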
Target sequence (P16066 whole entry, looked up): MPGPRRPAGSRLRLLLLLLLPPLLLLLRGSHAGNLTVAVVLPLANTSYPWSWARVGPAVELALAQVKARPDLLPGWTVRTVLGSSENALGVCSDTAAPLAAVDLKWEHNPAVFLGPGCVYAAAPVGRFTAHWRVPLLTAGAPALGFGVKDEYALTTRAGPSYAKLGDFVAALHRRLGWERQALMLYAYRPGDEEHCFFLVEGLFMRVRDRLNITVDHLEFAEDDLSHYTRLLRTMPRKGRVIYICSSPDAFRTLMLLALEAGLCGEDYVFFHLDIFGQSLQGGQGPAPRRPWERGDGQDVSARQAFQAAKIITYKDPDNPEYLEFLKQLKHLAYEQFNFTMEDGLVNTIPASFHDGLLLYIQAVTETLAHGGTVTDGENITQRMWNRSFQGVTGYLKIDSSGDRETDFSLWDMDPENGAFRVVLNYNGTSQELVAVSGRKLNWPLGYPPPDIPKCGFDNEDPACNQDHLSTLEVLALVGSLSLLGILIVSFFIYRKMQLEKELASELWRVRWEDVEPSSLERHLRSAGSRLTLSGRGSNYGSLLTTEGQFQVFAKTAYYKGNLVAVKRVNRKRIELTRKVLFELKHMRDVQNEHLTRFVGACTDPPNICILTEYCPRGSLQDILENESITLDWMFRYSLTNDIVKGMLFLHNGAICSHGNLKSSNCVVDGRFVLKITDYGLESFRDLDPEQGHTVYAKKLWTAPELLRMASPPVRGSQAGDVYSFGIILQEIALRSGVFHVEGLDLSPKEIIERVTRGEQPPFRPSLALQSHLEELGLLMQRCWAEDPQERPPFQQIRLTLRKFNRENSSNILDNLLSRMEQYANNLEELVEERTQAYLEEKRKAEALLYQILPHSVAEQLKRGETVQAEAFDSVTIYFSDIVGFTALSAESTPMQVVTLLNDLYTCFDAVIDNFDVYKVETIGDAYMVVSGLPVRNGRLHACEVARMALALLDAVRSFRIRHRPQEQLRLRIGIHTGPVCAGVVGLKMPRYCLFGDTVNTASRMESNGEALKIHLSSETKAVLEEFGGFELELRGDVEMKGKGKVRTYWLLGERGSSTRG
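Compound pre-incubated 30 min at room temperature on GloSensor-loaded HEK293 cells stably carrying hNpr1 and the pGS-40F cGMP biosensor. Stimulation uses hNppA at 0.1 nM final; luminescence is taken at baseline and 20 min post-agonist.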
* marks the source's active call; other numbers are inactive results; ? = inconclusive; & = joins results of further samples; [ ] = dose if it differs, or a comment. On the % scale 0 is the no-effect control and ±100 the full control effect; potency means the concentration at half of the fitted maximal effect.

SMILES | hNpr1 antagonist
O=C(N[C@H]1CCOC[C@H]1C1CCOCC1)c1ccccc1-c1ncc[nH]1 | -0.9%
Cc1noc(-c2cccc(OC3CN(C(=O)NC4CCCC4)C3)c2)n1 | -7.6%
Cc1occc1C(=O)N1C[C@@H](CO)[C@H](c2nc(C3CC3)no2)C1 | -7.7%
CN1CCN(Cc2ccc(-c3cnc4c(OCc5ccccc5)nccn34)cc2)CC1 | ?
O=C(C1CC=CC1)N1CCC2(CC1)NCCc1c2[nH]c2ccccc12 | 2.9%
CC(C)CNC(=O)C1c2ccccc2C(=O)N(Cc2ccccc2)C12CCCC2 (configuration not stated) | -13.0%
CCOc1ccccc1NC(=O)N1CCC(Oc2ccccc2-c2nc(C)no2)C1 (configuration not stated) | -8.8%
CNC(=O)[C@@H]1CN(C(=O)CCc2ccc(OC)c(OC)c2)C[C@H]1CO | 9.1%
COc1ccc(NC(=O)N2CCCC(Cn3cnc4cccnc43)C2)cc1Cl (configuration not stated) | -0.4%
O=C1CCN(C(=O)c2cccnc2)CCCC(C(=O)N2CCN(Cc3ccccc3F)CC2)CCN1 (configuration not stated) | 2.1%
COCC(=O)Nc1cc(C(=O)N2CCN(C(C)=O)CC2)c2c(c1)ncn2Cc1ccc(F)cc1 | 5.0%
Cc1ccc(NC(=O)N2CCC(CCNC(=O)CCC3CCCC3)CC2)cc1 | -0.1%
O=C(CC1CCCN(c2cnn(CC3CC3)c(=O)c2)C1)NCc1ccccc1Cl (configuration not stated) | -16.0%
CC1=C[C@@H](CNC(=O)N2CCOCC2)[C@H](C(C)C)C[C@H]1Cc1nc2ccccc2n1C | ?
COc1ccc(CCC(=O)N2CCCN(C(=O)C3CC3)C(c3ccccc3)CC(=O)NCC2)cc1 (configuration not stated) | -1.0%
O=C1CC[C@]2(C(=O)NCc3ccccn3)CCCC[C@H]2N1CCc1ccccc1 | -4.4%
Cc1ccccc1N1Cc2c(ncnc2N2CCN(c3ncccn3)CC2)N(C)CC1=O | 4.9%
O=C(c1ccccn1)N1CCC(N2C(=O)C(OCC3CC3)C23CCOCC3)CC1 (configuration not stated) | -10.0%
COC[C@@H]1[C@H](NC(=O)C2(Cn3ccnc3)CC2)[C@@H]2CCO[C@H]12 | 18.5%
COc1cccc(NC(=O)N[C@H]2C[C@@H](c3nc(-c4ccc(OC(F)(F)F)cc4)no3)N(C)C2)c1 | -14.7%
COCCCN1Cc2cc(NC(=O)Cc3ccc(OC)cc3)ccc2OC(C)C1=O (configuration not stated) | 2.3%
COCc1ccc2c(c1)c(OC(C)(C)C(=O)Nc1ccccc1)nn2Cc1cccnc1 | 1.5%[70.6 µM]
CCNC(=O)CCc1c(C)nn(-c2cccc(C)c2)c1Oc1ccccc1 | 0.3%
COCC(=O)NC1CCC12CCN(S(=O)(=O)c1cccc3cccnc13)CC2 (configuration not stated) | 2.3%
C=CCNC(=O)N1CC[C@@H](CC(=O)O)[C@@H](CC2=NCCc3cc(OC)ccc32)C1 | 1.6%[70.6 µM]
COc1cc(Cl)ccc1C(=O)N1C[C@@H](CO)[C@H](c2ccncc2)C1 | 3.1%
O=C(c1ccccc1Cl)N1CCn2c(nnc2-c2ccccc2)C1 | -4.4%[70.6 µM]
O=C(c1cc(-n2cccn2)ccc1Cl)N1CCn2nc(CO)cc2C1 | 2.6%
Cc1noc(C)c1-c1cc2c(cc(-c3ccccc3)n2C)c(-c2ccnn2C)n1 | -19.2%[70.6 µM]
CCCc1noc(-c2cn(C3CCN(C(=O)c4cccc(N(C)C)c4)CC3)nn2)n1 | -23.7%
COc1ccc(OC)c(CN2CCc3ncc(C(=O)NCc4ccccc4)n3CC2)c1 | 2.4%[70.6 µM]
COc1ccccc1C(=O)N1CC(Oc2ccc(F)cc2C)C1 | 15.3%[70.6 µM]
Cc1noc([C@H]2CCN(C(=O)C3CC3)C[C@H]2NC(=O)C2CC2)n1 | 1.5%
COc1cccc(CC(=O)N2CCCC3(C2)NC(=O)N(Cc2cc(C)ccc2C)C3=O)c1 (configuration not stated) | -9.1%
C=CCNC(=O)[C@@H]1Cc2cn(Cc3cc(C)on3)c3cccc(c23)[C@H](CC(C)C)N1 | 0.8%[70.6 µM]
COCCCN1CC2(CCC1=O)CCN(c1ncnc3onc(C)c13)CC2 | -5.8%
COc1ccc(C(=O)N[C@@H]2CCC[C@@H]2C(=O)N2CCOCC2)cn1 | 6.8%
COc1ccc(CCN2CCCC(CN(C)Cc3cnc[nH]3)C2)cc1 (configuration not stated) | 0.5%
COC(=O)c1ccc2nc(CO[C@H]3CN(Cc4ccc(S(C)(=O)=O)cc4)C[C@H]3F)[nH]c2c1 | 1.3%
CCCCCC(=O)Nc1nc2c(s1)C[C@@H]1[C@](C)(CO)[C@H](O)CC[C@@]1(C)[C@@H]2CC(=O)N1CCCCC1 | -3.7%
COc1ccc(CN2C[C@H]3CN(Cc4cnn(C)c4)CCN3C2=O)cc1 | -0.6%[70.6 µM]
Cc1ccc(-n2c(C3CCN(C(=O)c4cc(F)ccc4Cl)CC3)n[nH]c2=O)cc1 | -1.1%
Cn1cnnc1CC1CCCN(C(=O)Nc2ccccc2)C1 (configuration not stated) | -1.4%
COc1cccc(CC(=O)N[C@@H]2C[C@H](Cn3cc(-c4cccnc4)nn3)[C@@H](O)[C@H]2O)c1 | 1.0%
CC1Oc2ccc(NC(=O)C3CC3)cc2CN(Cc2cc(F)cc(F)c2)C1=O (configuration not stated) | -4.1%
CCN(CC)Cc1cnc2c(C(=O)N3CCC(N4CCCC4)CC3)cnn2c1 | 1.4%
CC(C)NC(=O)Cc1cccn1-c1cccc(Cl)c1 | -6.3%
COCCN1CCCCCC(O)c2cc(C(=O)N(CCN(C)C)Cc3ccccc3)ccc21 (configuration not stated) | -16.4%
O=C(CN1C(=O)CNC1=O)NC1CCCN(Cc2ccccn2)C1 (configuration not stated) | 0.5%
Cc1ccc(NC(=O)CCC2CCN(C(=O)c3ccccc3F)CC2)cc1 | -11.0%
(cont.)
SMILES | hNpr1 antagonist
COCCCN1CCC(Cn2cnc3cn(C)nc3c2=O)C1 (configuration not stated) | -0.8%
CCOc1ccc(C(=O)N[C@@H]2[C@@H](Cc3ccccc3)[C@H]3OCC[C@@H]23)o1 | 0.6%
Cc1ccc(S(=O)(=O)Nc2ccc(C)n(CC(=O)N(C)C)c2=O)cc1 | -3.4%
CC(C)(C)C(=O)NC1CCN(c2nc3ncccc3o2)CC1 | -2.3%&-2.7%[70.6 µM]
O=C(NC1CCCCC1)N1CCC(c2noc(-c3cccnc3)n2)C1 (configuration not stated) | -4.5%
COc1ccc(CN2C=C(C(=O)OCc3nc(-c4ccccc4)no3)C(C)=NS2(=O)=O)cc1 | ?
CC(C)Oc1ccc(C2(C(=O)N3C[C@@H](C)[C@](O)(C4CC4)C3)CCCC2)cc1 | 2.3%
O=C(O)c1ccc(CC2CCN(C(=O)c3cccc(-n4cccn4)c3)C2)cc1 (configuration not stated) | 6.7%
COC(=O)CN1C(=O)[C@@H]2C[C@@H](O)CN2C2(CNC2)C1=O | -2.6%[70.6 µM]
Cc1ccccc1S(=O)(=O)N1CCC2(CC1)CC(CC(=O)NC1CC1)CCO2 (configuration not stated) | 7.3%
CCN1C(=O)C2CC3(CCN(C(=O)c4ccc(OC)nc4)CC3)CN2C1=O (configuration not stated) | 0.1%
COc1ccc(C(=O)NC(C(=O)N2CCCC2)C2CCN(C(=O)c3ccc(Cl)cc3)CC2)cc1 (configuration not stated) | 4.4%
CCCS(=O)(=O)N1CCC(Oc2nccnc2N2CCOCC2)C1 (configuration not stated) | -2.7%
Cc1ccc(C2NC(=O)N(CC(=O)N(C)c3cccc(C)c3)C3=C2C(=O)OC3)cc1 (configuration not stated) | -5.0%
Cc1nc2n(c1C(=O)N1CCC[C@@H]1c1ccc(F)cc1)CCC(Nc1ccccc1)C2 (some centres not stated) | 0.5%[70.6 µM]
O=C1CO[C@H]2CN(C3CCC3)C[C@H]2N1c1ccccc1 | -4.1%[70.6 µM]
CCOC(=O)C1(Cc2ccccc2F)CCCN(C(=O)C(=O)c2ccco2)C1 (configuration not stated) | 3.6%
Cc1ccccc1CCC1CCCN(C(=O)CCc2cnn(C)c2)C1 (configuration not stated) | -19.9%
O=C1CC(c2noc(-c3ccc(F)cc3)n2)CN1C1CCCCC1 (configuration not stated) | -13.3%
Cc1cccc(CN2CCCOCCNC(=O)CC2)c1 | 3.7%
COc1cc(F)c(C(=O)N2C[C@@H](C(=O)O)[C@H](c3ccccc3)C2)c(F)c1 | -2.3%
CC(=O)N1CCc2ccc(C(=O)N3CCCCCC3)cc21 | -4.2%
CC(C)c1ccc(NC(=O)CN2C(=O)NC3(CCOCC3)C2=O)cc1 | 1.8%
COc1ccccc1CC(=O)N1CCC[C@H]1c1nc(-c2ccccc2Cl)no1 | -1.3%
Cc1ccc(NC(=O)c2ccc(CN3C(=O)NC4(CCOCC4)C3=O)cc2)cc1C | ?
COc1ccc(C(=O)N2CCC3(CC2)CC(CO)N(C(=O)c2ccccc2)C3)cn1 (configuration not stated) | 1.6%
Cc1nn(-c2ccc(F)cc2)c(Oc2ccccc2F)c1CCC(=O)N1CCSCC1 | -16.0%
CCN1CCCC(c2nc3ccc(F)cc3c(=O)[nH]2)C1 (configuration not stated) | -1.6%[70.6 µM]
COc1ccc(CN2C(=O)[C@@H]3C[C@@H](O)CN3C3(CN(Cc4ccccn4)C3)C2=O)cc1 | 3.5%[70.6 µM]
CC(C)N[C@H]1C[C@@H](Cc2cc(-c3ccccc3)on2)C1(C)C | 4.2%[70.6 µM]
COc1ccc(CNC(=O)[C@H]2O[C@H](CCN3CCCC3)CC[C@@H]2O)cc1 | 6.7%[70.6 µM]
O=C(NCc1cccs1)c1csc(N2CCN(c3ccc(F)cc3)CC2)n1 | ?
NC(=O)[C@@H]1CN(C(=O)c2ccncn2)C[C@H]1COc1ccccc1 | 2.0%
CNC(=O)[C@@H]1CN(C(=O)CC2CCCC2)C[C@H]1COC | -1.3%
Cc1noc(C2CCCCCN2C(=O)c2ccco2)n1 (configuration not stated) | 3.0%
CC(=O)Nc1ccc(CN2C[C@@H](F)[C@@H](OCc3nc4ccccc4n3C)C2)cc1 | -9.9%[70.6 µM]
Cc1ccc(C)c(C(=O)N2CC[C@@H]3CN(S(C)(=O)=O)[C@@H]3C2)c1 | 3.5%
O=C(N[C@@H]1CCC[C@@H]1C(=O)NCCc1ccc(Cl)cc1)c1ccncc1 | 1.9%
O=C(NCCc1cccnc1)C1CCCN(C2CCOCC2)C1 (configuration not stated) | -3.0%
N#Cc1cccc(S(=O)(=O)N[C@H]2[C@H](O)[C@H](O)C[C@@H]2c2ccc(C(F)(F)F)cc2)c1 | 1.3%[70.6 µM]
COc1cc(CNC2CCC(O)CC2)ccc1OCC(O)CN1CCSCC1 (configuration not stated) | 7.2%
O=C(c1ccccc1)N1CCC(Cc2noc(C3CC3)n2)C1 (configuration not stated) | -0.4%
COc1ccc(CN2CCC3(CC2)CC(C(C)C)=NO3)cc1 | -1.3%[70.6 µM]
CCCNC(=O)C[C@@H]1CCN(C(=O)c2cccnc2)C[C@@H]1CC | 4.5%[70.6 µM]
CN(Cc1ccsc1)CC1(O)CCCN(CCCc2ccccc2)C1=O (configuration not stated) | -1.2%
COCCOCC(=O)N1CCC2(CC1)CC(N(C(=O)c1ccccc1)C1CC1)CCO2 (configuration not stated) | -16.8%
CCCN1C(=O)CCc2cc(NS(=O)(=O)c3cn(C)c(C)n3)ccc21 | 6.1%
COc1ccc(OC)c(NC(=O)C2Cn3cccc3C(=O)N2)c1 (configuration not stated) | -10.6%
O=C(NCCCn1cccn1)C1CCN(C(=O)N2CC3CC(C2)[C@H]2CCCC(=O)N2C3)CC1 (some centres not stated) | 0.8%
CCC(=O)N(C1CCOCC1)C1CCN(Cc2cccc(Cl)c2F)CC1 | 5.0%

Two consecutive entries already listed, for reference:
SMILES | hNpr1 antagonist
O=C(NCCCn1cccn1)C1CCN(C(=O)N2CC3CC(C2)[C@H]2CCCC(=O)N2C3)CC1 (some centres not stated) | 0.8%
CCC(=O)N(C1CCOCC1)C1CCN(Cc2cccc(Cl)c2F)CC1 | 5.0%

Remaining list, next part:
SMILES | hNpr1 antagonist
Cc1ccc(OCc2nc(C3CCCN3C(=O)CCn3nc(C)cc3C)no2)cc1 (configuration not stated) | -20.9%
CC(C)CN1CC2(CCN(C(=O)c3conc3-c3ccccc3)CC2)CC1=O | 2.4%
COc1ccc(C(=O)N[C@@H]2C=C(C(=O)N[C@H](CC(C)C)C(N)=O)C[C@@H](O)[C@@H]2O)cc1 | 3.0%[70.6 µM]
COC(=O)c1ccc2nc(C[C@@H]3C[C@@H](C(C)C)[C@H](CNC(=O)CN(C)C)C=C3C)[nH]c2c1 | 0.8%
CCN1C(=O)C2CC3(CCN(C(=O)C4CCCCC4)CC3)CN2C1=O (configuration not stated) | -13.2%
O=C(CC(c1ccccc1)c1ccc(Cl)cc1)N1CCC(CO)CC1 (configuration not stated) | -13.3%
CCc1noc(-c2nc(-c3cc(OC)c(OC)c(OC)c3)no2)n1 | -2.4%
O=C1C[C@@H]2CCN(C(=O)c3ccccc3)C[C@@H]2CCN1CCN1CCOCC1 | 4.6%[70.6 µM]

An excerpt of these results, field by field:
> CCN(CC)Cc1cnc2c(C(=O)N3CCC(N4CCCC4)CC3)cnn2c1
- hNpr1 antagonist: 1.4%
> CC(C)NC(=O)Cc1cccn1-c1cccc(Cl)c1
- hNpr1 antagonist: -6.3%
> COCCN1CCCCCC(O)c2cc(C(=O)N(CCN(C)C)Cc3ccccc3)ccc21 (configuration not stated)
- hNpr1 antagonist: -16.4%
> O=C(CN1C(=O)CNC1=O)NC1CCCN(Cc2ccccn2)C1 (configuration not stated)
- hNpr1 antagonist: 0.5%

Bioassay records from PubChem.

This is a subset (hit frequency here may not be typical).
